From PubChem BioAssay
Bfl-1 A1 inh: caspase 3/7 activation in MEF A1-2A-BIM cells, primary screen, A1 inhibitor project, cell-based, luminescence, HTS. Caspase-Glo 3/7 luminescence, 3 h; percent of clofoctol response, vehicle zero. caspase activation, % (concentration not given with the values). actives 0.066% (n = 330,000);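 active means over half of replicate activation scores above 10%, or exactly half above 10 with the replicate mean above 10; inconclusive means replicate mean below 10 yet half the replicates above 10; inactive means over half of replicates below 10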;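 further: wells of about 30 µL received 50 nL stock; many hits fall short of the cut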
Calb FLC: C. albicans growth inhibition with fluconazole, primary screen, CaCi-2 strain, Alamar Blue fluorescence; C. albicans CaCi-2 (fluconazole-resistant clinical isolate) + fluconazole, 48 h; growth inhibition, % (no concentration beside the values); actives 0.57% (n = 300,000);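 active means most replicates above 75%; inconclusive means exactly half above 75%; inactive means most below 75%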;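 further: all wells also contain fluconazole at 8 µg/ml as a sub-toxic cotreatment; 0% = median of DMSO wells and 100% = median of geldanamycin control wells; wells of about 8 µL received 7.5 nL stock; the first replicate is given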
Beta apoptosis: inhibitors of cytokine-induced beta cell apoptosis, primary screen, luminescence; protection from apoptosis, % (test concentration not listed); actives 0.8% (n = 300,000); INS-1E cytokine-induced death, ATP luminescence, 48 h; percent of positive-control rescue, neutral wells zero; AID 435005, 2010;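 active means all replicates at 75% or more, or half of them and the mean; inconclusive means half reach 75% but not the mean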;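 further: 0% = cytokine-treated negative control wells and 100% = positive control rescue; higher means more ATP so stronger rescue from cytokine killing; wells of about 40 µL received 100 nL stock; the first replicate is given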
ALR inh: inhibitors of human ALR sulfhydryl oxidase, primary screen, biochemical, H2O2 detection, HRP-luminol luminescence, single point; purified ALR, DTT oxidation; inhibition, % (no concentration beside the values); actives 3.8% (n = 290,000);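 active means mean and each replicate at 75% or more; inconclusive means only one of the two met; inactive means neither met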;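 further: stock transfer was 7.5 nL into about 7.5 µL; 0% = neutral wells and 100% = wells with inactivated enzyme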
rRNA inh HTS: reduced GFP signal of wild-type E. coli, primary screen, bacterial rRNA inhibitor project, GFP/RFP fluorescence, OD600, single point; E. coli WT GFP vs humanized-ribosome RFP mutants, 24 h; active compounds read low; DMSO median 0, no signal -100; GFP signal change (wild-type ribosome), % (test concentration not listed); actives 1.6% (n = 350,000); AID 720706, 2013;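 active means significant combined selectivity score with lowered wild-type GFP, culture density cut under 30%, mutant RFP and density less affected; inactive means any of these conditions unmet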; further: one replicate is shown; some compounds called inactive have numbers as strong as hits
LANA-H2A inh: blockers of LANA interaction with H2A/H2B – biochemical, FP readout, HTS, primary screen; cell-free LANA-H2A/H2B peptide, fluorescence polarization; inhibition, % (no concentration beside the values); actives 0.6% (n = 320,000); AID 2629, 2010; in the data active means inhibition mostly above about 10%, no sharp cut-off; inactive means mostly below about 6.7%;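 further: stock transfer was 7.5 nL into about 10 µL; 0% = median of vehicle wells and 100% = median of positive control wells; one replicate is shown; the record names a cut of 25% in any replicate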
Target sequence (Q9QR71 whole entry, looked up): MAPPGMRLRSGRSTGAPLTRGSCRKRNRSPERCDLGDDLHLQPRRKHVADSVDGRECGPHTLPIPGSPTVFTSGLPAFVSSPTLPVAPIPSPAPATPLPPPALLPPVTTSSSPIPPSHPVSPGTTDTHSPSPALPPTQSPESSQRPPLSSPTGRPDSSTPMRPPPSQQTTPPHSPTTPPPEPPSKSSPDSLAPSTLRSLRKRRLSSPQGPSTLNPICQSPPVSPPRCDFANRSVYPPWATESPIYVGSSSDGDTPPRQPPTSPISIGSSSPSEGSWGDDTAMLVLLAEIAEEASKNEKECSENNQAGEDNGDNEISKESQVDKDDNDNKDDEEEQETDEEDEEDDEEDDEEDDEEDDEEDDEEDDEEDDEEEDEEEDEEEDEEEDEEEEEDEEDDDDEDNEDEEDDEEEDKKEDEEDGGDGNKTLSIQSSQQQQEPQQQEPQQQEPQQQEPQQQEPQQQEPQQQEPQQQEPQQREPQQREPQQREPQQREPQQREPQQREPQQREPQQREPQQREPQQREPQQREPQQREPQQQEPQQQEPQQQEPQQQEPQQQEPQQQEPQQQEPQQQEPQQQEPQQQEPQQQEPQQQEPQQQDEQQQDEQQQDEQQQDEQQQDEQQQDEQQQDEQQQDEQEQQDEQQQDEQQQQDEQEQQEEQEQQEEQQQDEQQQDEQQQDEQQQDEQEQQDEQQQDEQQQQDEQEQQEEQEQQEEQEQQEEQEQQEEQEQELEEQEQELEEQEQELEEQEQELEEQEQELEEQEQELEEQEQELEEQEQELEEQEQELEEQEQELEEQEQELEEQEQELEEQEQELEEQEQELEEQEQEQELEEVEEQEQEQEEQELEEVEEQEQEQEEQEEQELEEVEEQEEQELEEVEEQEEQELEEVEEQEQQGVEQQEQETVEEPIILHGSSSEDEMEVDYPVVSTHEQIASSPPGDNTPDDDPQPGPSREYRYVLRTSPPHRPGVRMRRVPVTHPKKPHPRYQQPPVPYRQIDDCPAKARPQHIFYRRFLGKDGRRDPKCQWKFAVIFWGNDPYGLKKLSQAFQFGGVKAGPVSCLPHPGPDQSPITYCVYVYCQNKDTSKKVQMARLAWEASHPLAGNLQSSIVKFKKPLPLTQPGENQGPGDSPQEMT
T cruzi repl: inhibitors of intracellular T. cruzi growth, primary screen, luminescence, NIH3T3 host cells. inhibition, % (concentration not given with the values). T. cruzi beta-gal in NIH3T3, 90 h. actives 1.4% (n = 300,000);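 active means mean inhibition across valid replicates above about 55%, limit read from the data; inconclusive means mean below that limit but half or more replicates reach it; inactive means mean below it, under half of replicates reach it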;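 further: signal also drops with host cell toxicity which is not excluded here; 0% = plate median of DMSO wells and 100% = zero luminescence signal; higher percent means less beta-gal luminescence so fewer parasites; stock transfer was 50 nL into about 50 µL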
B2AR ag: beta2AR agonists driving receptor internalization, primary screen, cell-based, FAP fluorogen, flow cytometry | Beta-2 adrenergic receptor (Homo sapiens), P07550 | Am2.2-beta2AR cells; reference of the scale not given here | response, % (no concentration beside the values) | actives 0.43% (n = 340,000) | AID 504454, 2011;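 active means response above a set limit, near 3 SD of response in nonfluorescent compounds, cut at about 42% in these data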;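 further: stock transfer was 100 nL into about 11 µL; a reference agonist was the positive control; negative values mostly stem from fluorescent compounds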
rRNA inh HTS OD600: further read-out of rRNA inh HTS, marked with its call; OD600 change, %; measured here: OD600 growth;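 optical density of the mix in the first replicate; 0 = DMSO median and -100 = no signal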
rRNA inh HTS RFP: also measured in rRNA inh HTS; calls as there; RFP signal change, %; measured here: RFP humanized mutant strains;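 first replicate; 0 = DMSO median and -100 = no signal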
Active calls of the source: *; ? = inconclusive; . = no result given; & = joins results of further samples.

SMILES	Bfl-1 A1 inh	Calb FLC	Beta apoptosis	ALR inh	rRNA inh HTS	rRNA inh HTS OD600	rRNA inh HTS RFP	LANA-H2A inh	T cruzi repl	B2AR ag
COc1ccc([C@@H]2CC=C(C(=O)O)[C@H](c3ccc(Cl)cc3)N2S(=O)(=O)c2ccc(C)cc2)cc1OC	-0.2	.	3	4	-20	-12	-5.5	-4.3	.	0
Cn1c(O)c(/C=N/NC(=O)c2cc3ccccc3cc2O)c2ccccc21	-11	83*	69	.	-59	-72	-18	12	-4	0
Cc1ccccc1CS(=O)(=O)c1nnc([C@H](CC(C)C)NC(=O)OC(C)(C)C)o1	-0.6	4	-6	64	6	-6	-7.9	-4.3	-25	64*
COc1ccc(-c2c(C#CC(C)(C)O)c3ccccc3n2C)cc1	-0.1	.	-1	-5	-36	-49	0.1	-3.9	.	-10
CC(=O)NC(Cc1c[nH]c2ccccc12)C(=O)NCCc1ccccn1 (centres undefined)	-0.6	14	0	2	5	16	-0.1	1.4	-1	2
CCOc1ccc2nc(SCC(=O)N3CCN(C(=O)c4ccco4)CC3)sc2c1	-0.7	32	-1	-5	.	.	.	-0.8	-5	-8
Cc1ccccc1N(CC(=O)NC1CCCCC1)C(=O)CCCC(=O)Nc1ccccn1	0.0	-5	-5	-3	6	8	-1.0	4.4	1	-1
N#CCC(=N)N1CCN(c2ccc(Cl)cc2)CC1	0.6	2	1	-2	.	.	.	2.8	16	4
COCCNC(=S)NCCCNc1nc2cc3c(cc2cc1C#N)OCO3	1.4	-2	3	-16	.	.	.	-1.3	-4	9
CCN(CC)C(=O)Cn1c(C)c(/C=C/c2cc[n+](C)cc2)c2ccccc21	0.6	-5	-5	-19	76	15	0.4	-133	5	-120
O=C(CSc1nnc(-c2ccco2)o1)Nc1c(F)cccc1F	-0.2	.	-2	.	1	9	-1.5	0.6	.	6
O=C(c1cccc(C(=O)N2CCN(c3ccccc3F)CC2)n1)N1CCN(c2ccccc2F)CC1	-0.6	16	-3	-22	.	.	.	2.4	14	-11
S=C(NC1CCCC1)N1CCN(c2ncccn2)CC1	-0.7	-9	3	-13	4	2	16	-2.4	-10	-10
O=C(NC1CCN(S(=O)(=O)c2ccccc2F)CC1)c1ccco1	-0.7	-1	-1	-2	4	7	-0.5	4.4	11	3
Cc1ccc(-c2nc3sc(C#N)c(N)n3c(=O)c2C#N)cc1	0.4	111*	3	.	19	10	3.6	-4.6	4	-9
COc1ccc(NC(=S)NC2CC3CCC(C2)N3Cc2ccco2)cc1 (centres undefined)	1.2	8	-12	4	15	14	24	4.0	-13	1
CCN(C(=O)[C@@H]1CCCN1C(=O)c1cccs1)c1nc2cc(Cl)ccc2s1	1.4	-3	1	0	.	.	.	-2.9	21	-5
O=C(COC(=O)C1=COCCO1)NC1CCCCCCC1	-0.1	?	-2	-1	7	6	-1.2	-1.5	7	-6
COc1ccccc1N(C(=O)c1ccco1)C(C(=O)NC1CCCC1)c1cccnc1 (centres undefined)	0.3	11	-7	-35	.	.	.	2.6	3	18
CCOC(=O)C1=NNC2(CC(=O)N(c3cc(C)cc(C)c3)C2=O)C1 (centres undefined)	1.2	3	-8	0	0	2	4.2	1.5	-9	4
O=C(Cn1nnc(-c2ccccc2NC(=O)c2ccco2)n1)NC1CCCCC1	0.9	-28	0	-5	12	7	1.2	-3.9	4	-4
COc1ccc(NS(=O)(=O)c2ccc(C)c(C(=O)N(C)Cc3ccc(OC)cc3OC)c2)cc1	-0.3	13	1	-18	3	-1	-1.1	-4.9	20	8
OCCN1CCN(CCOc2ccccc2-c2ccccc2)CC1	-0.5	5	-2	-7	-4	-5	-2.3	1.5	-11	-4
Cc1ccc(C(=O)N/C(=C/c2ccccc2)C(=O)NCC2CCCO2)cc1 (centres undefined)	0.9	25	.	3	3	9	4.0	-2.4	20	10
Cc1cc(OC(C)C(=O)NC2CCN(Cc3ccccc3)CC2)c2c(C)cc(=O)oc2c1 (centres undefined)	0.0	-48	2	-2	.	.	.	-0.4	30	-1

Record cards, as listed above. Order of values: Bfl-1 A1 inh | Calb FLC | Beta apoptosis | ALR inh | rRNA inh HTS | rRNA inh HTS OD600 | rRNA inh HTS RFP | LANA-H2A inh | T cruzi repl | B2AR ag
Cc1ccccc1CS(=O)(=O)c1nnc([C@H](CC(C)C)NC(=O)OC(C)(C)C)o1 is listed as -0.6 | 4 | -6 | 64 | 6 | -6 | -7.9 | -4.3 | -25 | 64*
O=C(c1cccc(C(=O)N2CCN(c3ccccc3F)CC2)n1)N1CCN(c2ccccc2F)CC1 is listed as -0.6 | 16 | -3 | -22 | . | . | . | 2.4 | 14 | -11

Some of these compounds in order of their number in ALR inh, descending:
| Structure | Bfl-1 A1 inh | ALR inh | rRNA inh HTS | rRNA inh HTS OD600 | rRNA inh HTS RFP | LANA-H2A inh | B2AR ag |
| --- | --- | --- | --- | --- | --- | --- | --- |
| COc1ccc(NC(=S)NC2CC3CCC(C2)N3Cc2ccco2)cc1 (centres undefined) | 1.2 | 4 | 15 | 14 | 24 | 4.0 | 1 |
| CCN(C(=O)[C@@H]1CCCN1C(=O)c1cccs1)c1nc2cc(Cl)ccc2s1 | 1.4 | 0 | . | . | . | -2.9 | -5 |
| O=C(NC1CCN(S(=O)(=O)c2ccccc2F)CC1)c1ccco1 | -0.7 | -2 | 4 | 7 | -0.5 | 4.4 | 3 |
| CCOc1ccc2nc(SCC(=O)N3CCN(C(=O)c4ccco4)CC3)sc2c1 | -0.7 | -5 | . | . | . | -0.8 | -8 |
| CCN(CC)C(=O)Cn1c(C)c(/C=C/c2cc[n+](C)cc2)c2ccccc21 | 0.6 | -19 | 76 | 15 | 0.4 | -133 | -120 |

(listing goes on)
SMILES	Bfl-1 A1 inh	Calb FLC	Beta apoptosis	ALR inh	rRNA inh HTS	rRNA inh HTS OD600	rRNA inh HTS RFP	LANA-H2A inh	T cruzi repl	B2AR ag
O=C(CSc1nnc(Cc2ccccc2)o1)NC1CC2CCC1C2 (centres undefined)	0.3	-1	-4	0	.	.	.	-3.5	-1	-2
Cc1cccc2sc(NS(=O)(=O)c3ccccc3)nc12	0.5	4	1	6	-11	-29	-3.6	-5.1	-10	2
O=C(O)/C=C\C(=O)Nc1ccc(N2CCN(c3ccc(Cl)c(Cl)c3)CC2)cc1	0.2	-66	6	16	-5	-11	52	-0.8	-43	4
CN1CCN(c2ccc(Cl)cc2NC(=O)c2ccc(S(=O)(=O)N3CCCCCC3)cc2)CC1	-0.1	16	-5	-12	.	.	.	-0.6	34	18
N#Cc1ccc(OCC(=O)N/N=C(\CCC(=O)O)c2cccs2)cc1	0.5	-10	-1	13	5	6	1.3	4.8	-13	-5
Cc1ccc(C)c(NC(=O)COC(=O)c2cccc3c2C(=O)c2ccccc2C3=O)c1	-0.1	2	0	.	9	-3	-3.0	-3.2	-22	7
C=CCc1ccc(OCCCNCc2ccccc2)c(OC)c1	1.2	-5	-1	-35	-4	-6	-2.4	1.2	40	6
CN(C)C(=O)c1ccc(-c2cc(C(F)(F)F)nn2C)s1	-1.2	12	3	-4	-6	5	1.1	-1.4	-4	-17
O=S(=O)(c1ccc2ccccc2c1)N1CCc2ccccc21	1.9	-6	.	1	14	15	5.5	-2.6	16	-4
COc1ccc2c(c1)OC[C@H]1[C@H]2N2C(=O)c3cc(F)ccc3NC(=O)[C@@]2(C)[C@H]1c1ccccc1	0.0	.	16	1	1&3	0&-2	1.4&-0.3	8.3	.	16
O=C(Nc1ccccc1)c1cccc(Cn2cc(C(F)(F)F)ccc2=O)c1	0.3	-5	-2	-4	2	0	-1.5	1.3	-12	-7
O=C(Oc1ccccc1)c1cccc(N2C(=O)CCC2=O)c1	1.0	-6	-1	2	.	.	.	-2.7	-47	-1
Cc1ccc(S(=O)(=O)NCC(c2ccccc2)N2CCN(c3ccc(F)cc3)CC2)cc1 (centres undefined)	.	-11	.	.	12	7	4.1	.	9	-2
O=C(CC1C(=O)NCCN1CC1CCCCC1)NCc1ccccc1Cl (centres undefined)	-0.4	31	-6	.	-17	-22	-4.9	4.9	7	-128
CCCn1c(Cc2ccccc2)nnc1SCC(=O)N1CCOCC1	0.0	11	1	-1	.	.	.	0.6	-11	5
COc1ccc(NC(=O)CSc2nn3c(=O)c(C)nnc3s2)cc1	-0.2	2	.	65	15	7	8.4	28*	-10	-1
CCCC12CN3CC(C)(CN(C1)C31CCCCC1)C2=O	0.9	0	0	4	.	.	.	0.1	-11	0
Cc1ccc(/C=C/c2ccc(=O)n(Cc3ccc(Cl)cc3Cl)n2)cc1	0.3	26	-7	1	.	.	.	0.0	-14	0
C=CCNC(=O)c1ccccc1NC(=O)C1COc2ccccc2O1 (centres undefined)	-0.4	0	2	2	14	16	0.1	-2.6	2	3
CCC(C)(C)NC(=O)C(c1cccc(OC)c1OC)N(CCOC)C(=O)CCC(=O)Nc1cc(C)on1 (centres undefined)	0.1	-1	-1	0	0	-6	-2.1	4.2	-6	4
O=C(C1CC(=O)N(c2ccc(Cl)cc2)C1)N1CCN(Cc2ccc3c(c2)OCO3)CC1 (centres undefined)	-0.3	-1	4	1	-2	-5	1.8	-0.1	-6	9
CCOC(=O)c1sc(N2C(=O)C(O)=C(C(=O)c3ccco3)C2c2ccco2)nc1C (centres undefined)	-0.3	-3	-2	.	-16	-3	3.3	-5.4	-9	8
O=C(NCCc1cccs1)c1ccc(Cl)cc1	-2.3	-3	1	-8	-11	-3	-1.7	-1.6	15	-1
O=C(CSc1ncn[nH]1)Nc1cccc2ccccc12	0.3	3	-5	-20	.	.	.	-5.0	-9	7
CCc1ccc2c(c1)c(N=NC1=NC(=O)CS1)c(O)n2C	-1.4	6	-1	-1	.	.	.	5.6	-3	1

Following part
SMILES	Bfl-1 A1 inh	Calb FLC	Beta apoptosis	ALR inh	rRNA inh HTS	rRNA inh HTS OD600	rRNA inh HTS RFP	LANA-H2A inh	T cruzi repl	B2AR ag
NC(=O)c1cccn(Cc2ccc(C(F)(F)F)cc2)c1=O	-0.2	-3	.	-3	7	2	-0.1	-1.0	-18	-3
C=CCn1c(SCC(=O)Nc2ccccc2OC)nnc1-c1ccccn1	.	-12	0	-14	.	.	.	10	4	-3
NC(=O)c1cc([N+](=O)[O-])ccc1NCc1cccc2ccccc12	-1.6	.	5	-13	-2	-3	-5.5	-1.6	.	-11
N#CCc1nc2ccccc2c(=O)[nH]1	-1.1	20	4	59	-1	-7	4.2	0.8	-9	5
c1ccc(OCCCc2nc(-c3ccncc3)no2)cc1	0.0	-15	-2	0	.	.	.	0.2	46	-6
COc1ccc(S(=O)(=O)NC(N)=NCCc2ccccc2OC)cc1	0.6	-7	-7	-3	1	-5	1.2	-3.5	-5	2

Not all compounds are listed. The share of hits here may be higher or lower than overall.
